Screens deposited in PubChem BioAssay by National Center for Advancing Translational Sciences (NCATS).
VDR inhibitor: blocks the human vitamin D receptor | P11473 | actives 0.93% (n = 400,000) | AID 504847 | Potency, µM, for inactives: max response, negative = inhibition, hits mostly inhibitors | VDR-SRC2-3 peptide fluorescence polarization, 2 h; active = well fitted inhibition curve with a large enough effect; inconclusive = small, poorly fitted or top-dose-only effect, or another doubt; inactive = no such curve, though single readings can be large or run the other way; also: series mostly up to about 120 µM
Target sequence (P11473 whole entry, looked up): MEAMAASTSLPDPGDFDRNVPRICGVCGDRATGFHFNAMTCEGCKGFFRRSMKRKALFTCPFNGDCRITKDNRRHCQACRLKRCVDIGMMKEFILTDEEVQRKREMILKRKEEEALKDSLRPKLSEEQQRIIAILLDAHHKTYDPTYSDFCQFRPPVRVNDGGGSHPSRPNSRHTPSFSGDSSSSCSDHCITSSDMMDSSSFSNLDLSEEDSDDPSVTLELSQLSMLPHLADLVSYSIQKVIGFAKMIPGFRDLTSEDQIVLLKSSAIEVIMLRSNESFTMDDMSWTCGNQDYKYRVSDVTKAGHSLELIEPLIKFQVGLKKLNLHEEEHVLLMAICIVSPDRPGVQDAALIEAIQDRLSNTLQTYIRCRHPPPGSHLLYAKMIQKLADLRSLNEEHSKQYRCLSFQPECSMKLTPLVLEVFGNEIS
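FP read-out; VDR + SRC2-3 coactivator peptide; 23 nl compound by pintool; 2 h RT incubation; reagents held at 4 deg C, protected from light.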
* = called active by the depositor; ? = inconclusive; & = joins results of further samples. % is scaled to controls: 0 for no effect and ±100 for the full control effect; potency is read from the fitted curve at half-maximal effect. These rows are one share of the data (hit frequency here may not be typical).

VDR inhibitor	smiles
6.7%	CC(C)(C)n1nc2c(c1NC(=O)c1ccc(S(=O)(=O)N3CCCC3)cc1)CS(=O)C2 (stereo not given)
-1.8%	CCCCN(C(=O)c1cc(-c2ccc(F)cc2)nc2ccccc12)c1c(N)n(CCCC)c(=O)[nH]c1=O
1.3%	O=C(CSCC(=O)OCC(=O)c1ccc(Br)cc1)Nc1ccc(Br)cc1
-8.4%	CC1CCc2c(sc(NC(=O)C3c4ccccc4Oc4ccccc43)c2C#N)C1 (stereo not given)
29.0%&2.1%	CC(=O)Cn1nnc2sc(-c3ccccc3)cc2c1=O
5.3%	COc1ccccc1C(=O)Nc1nc(-c2cccs2)c(NC(C)=O)s1
9.4%	CC(C)c1ccc(Nc2nc3ccc(C(=O)c4ccccc4)cc3n3cnnc23)cc1
-8.3%	O=[N+]([O-])c1ccccc1OCCN1CCOCC1
-6.5%	CC1(C)C(C=C(Cl)Cl)C1C(=O)NC(O)C(=O)c1ccccc1 (stereo not given)
-16.2%	CCn1cc2nc(SCC(=O)Nc3ccc(OC)c(OC)c3)n(Cc3ccc(Cl)cc3)c(=O)c2n1
0.9%	Cc1cccc(Cn2c(SCc3ccc(C(=O)NC4CCCCC4)cc3)nc3ccncc32)c1
-11.3%	CCCn1c(N)c(N(CCOC)C(=O)c2cccc(F)c2)c(=O)[nH]c1=O

Continuation:
VDR inhibitor	smiles
-18.9%	Cc1cc(/C=N/N2CCN(C)CC2)c(C)n1-c1ccccc1F
2.6%	Cc1cc(C)c2nc(N(CCN(C)C)C(=O)c3ccc(S(=O)(=O)N(C)CC4CCCO4)cc3)sc2c1 (stereo not given)
-3.5%	Cc1cc(S(=O)(=O)N2CCCCC2CCNC(=O)C(=O)NC2CC2)ccc1F (stereo not given)
-11.3%	CN(Cc1ccc(F)cc1)Cc1nc(CCc2ccccc2)no1
17.1%	CC(C)OCCCNc1ncnc2sc3c(c12)CCCC3
11.8%	CCCC(=O)Nc1sc2c(c1C(=O)OCC)CC(C)(C)OC2
6.4%	CSc1nnc(C)c(=O)n1COC(=O)c1cc(Cl)ccc1[N+](=O)[O-]
15.1%	CC(C)Oc1ccc(CNC(=O)c2ccc(NC(=O)N3CC(C)Sc4ccccc43)cc2)cc1 (stereo not given)
79.4µM*	c1ccc(CNc2ccnc(-c3ccoc3)n2)cc1
-8.3%	N#C/C(=N\Nc1ccccc1[N+](=O)[O-])C(=N)N1CCCCC1
-10.9%	O=C(Nc1ccc(Cl)c(S(=O)(=O)N2CCOCC2)c1)C1CCCC1
-11.5%	NC(=O)CC(c1ccccc1)c1ccco1 (stereo not given)

Sorted by the number under VDR inhibitor (highest first): some entries from above
SMILES | VDR inhibitor
CC(C)Oc1ccc(CNC(=O)c2ccc(NC(=O)N3CC(C)Sc4ccccc43)cc2)cc1 (stereo not given) | 15.1%
Cc1cc(S(=O)(=O)N2CCCCC2CCNC(=O)C(=O)NC2CC2)ccc1F (stereo not given) | -3.5%
N#C/C(=N\Nc1ccccc1[N+](=O)[O-])C(=N)N1CCCCC1 | -8.3%
Cc1cc(/C=N/N2CCN(C)CC2)c(C)n1-c1ccccc1F | -18.9%

Further records.
VDR inhibitor	smiles
6.7%	O=C(Cn1c(=O)n(Cc2ccccc2)c(=O)c2cc(Cl)ccc21)NCC1CCCO1 (stereo not given)
-17.8%	O=C(c1cnc2n(c1=O)CCS2)N(c1ccccc1)C1CCCCC1
3.3%	COc1cc(CNCCO)ccc1OCCc1ccccc1
5.1%	CCC/C(O)=C1\C(=O)CCCC1=NC(C)C(=O)O (stereo not given)
-2.8%	COc1ccc2cc(C3CC(c4cccs4)=NN3C(C)=O)c(Cl)nc2c1 (stereo not given)
14.3%	CC(=O)N1CCC2(CCN(Cc3nccs3)CC2)CC1
-5.9%	O/N=C\c1ccc2noc(-c3ccc(Cl)cc3)c2c1
14.4%	CCS(=O)(=O)c1ccc(-c2cccc(NC(=O)c3ccc(Br)o3)c2)nn1
-4.5%	CCCCn1c(SCC(=O)NNC(=O)c2ccccc2)n[nH]c1=O
4.1%	Cc1nc(-c2cccs2)sc1C(=O)NN
?	CC(CC(C)(C)C)CP(=O)(O)CC(C)CC(C)(C)C (stereo not given)
13.7%	Cc1cccc(N(C)C(=O)Cc2c(C(=O)O)[nH]c3ccccc23)c1

Additional results.
VDR inhibitor	smiles
-19.4%	COc1ccc(-c2nc3c(n2O)CCc2c-3no[n+]2[O-])cc1
1.7%	COc1cc(C2C3=C(CC(C)(C)CC3=O)OC(N)=C2[N+](=O)[O-])ccc1O (stereo not given)
-11.3%	Cc1ccc(-c2nnc(Nc3cccc(O)c3)c3ccccc23)cc1S(=O)(=O)NCCO
-12.9%	O=c1[nH]c(NCCO)nc2c1C1(CCCCC1)Cc1ccccc1-2
11.9%	O=C(OCc1cc(=O)n2nc(C3CC3)sc2n1)c1ccccc1Cl
6.0%	COc1ccc(-c2cc(C(=O)N3CCCC(C(F)(F)F)C3)c3ccccc3n2)cc1 (stereo not given)
5.4%	COc1ccccc1C(C)NC(=O)CN(C)CC(=O)Nc1c(C)cccc1C (stereo not given)
-3.6%	N=C1/C(=C/c2cccn2-c2ccc([N+](=O)[O-])cc2)C(=O)N=C2SC=CN12
-4.0%	COc1ccc(NC(=O)C2CCCCN2CC(=O)OCc2ccccc2)cc1OC (stereo not given)
10.4%	COc1ccc(-c2noc(CCCC(=O)O)n2)cc1
1.3%	CC(=O)Nc1sc2c(c1CN1CCN(C)CC1)CCCC2
-1.0%	COc1ccc2c(CC(=O)NCC3CCC(C(=O)O)CC3)cc(=O)oc2c1 (stereo not given)

Reformatted tab-delimited: two of the compounds above
Structure	VDR inhibitor
CCC/C(O)=C1\C(=O)CCCC1=NC(C)C(=O)O (stereo not given)	5.1%
CCS(=O)(=O)c1ccc(-c2cccc(NC(=O)c3ccc(Br)o3)c2)nn1	14.4%

More results.
VDR inhibitor	smiles
-7.5%	COC(=O)c1cc(Cl)c(NC(=O)/C=C/c2ccc(Cl)cc2)cc1OC
-6.0%&0.2%	Cc1ccc(Cn2ccnc2SCC(=O)NC2CCCC2)cc1
1.3%	C=CCN(Cc1ccc(OC)c(OC)c1)C(=O)c1cc2cc(F)ccc2[nH]1
-2.5%	Cc1cccc(N2CCN(C(=O)/C=C/c3cccs3)CC2C)c1 (stereo not given)
-3.9%	CN1C(C(=O)NCc2ccc(OC(F)(F)F)cc2)CC2Cn3c(nc4cc(Cl)c(Cl)cc43)C21 (stereo not given)
2.1%	O=C(/C=C/c1cccs1)Nc1ccc(N2CCOCC2)c(S(=O)(=O)Nc2ccccc2Cl)c1
0.4%	Clc1ncccc1-c1nnn(-c2ccccc2)n1
44.7µM*	CC(=O)SC(C[N+](=O)[O-])c1cn(C(C)=O)c2ccccc12 (stereo not given)
-23.5%	CCC(=O)Nc1ccc2c(c1)nc1n2CCN(CCOC)C1
-23.7%	CCc1ccccc1N(CC(=O)NC(C)C)C(=O)CCC(=O)Nc1nccs1
2.0%	COc1ccc(C(=O)Oc2cc(C)[nH]c(=O)c2[N+](=O)[O-])c(OC)c1
8.91µM*	CCOC(=O)/C=C/CCC/C=C/C(=O)c1ccccc1

(cont.)
VDR inhibitor	smiles
-5.7%	CCCOc1cccc(CN2CCCCC2c2cccnc2)c1 (stereo not given)
15.3%	Cc1ccc(CC(=O)Nc2c(C(=O)N3CCN(c4ccccc4F)CC3)oc3ccccc23)cc1
-5.5%	S=c1[nH]nc(COc2ccccc2)n1/N=C/c1ccc(Cl)cc1Cl
-16.9%	Cc1cc(NC(=O)CCCn2nc([N+](=O)[O-])c(Cl)c2C)no1
25.7%	O=C(O)c1cccc(Oc2cccc(Cl)n2)c1
3.1%	CCN(CC)CCCn1c(=S)[nH]c2cc(Cl)ccc2c1=O
-20.4%	Cc1ccc(CN(C)C2CCN(C)CC2)cc1
4.8%	CCc1ccc(-c2csc3ncn(CC(=O)NCc4ccco4)c(=O)c23)cc1
-15.6%	N/C(=N\c1nc(CSc2ccc(Cl)cc2)cc(=O)[nH]1)Nc1ccccc1C(F)(F)F
-2.2%	Cn1cnnc1SCC(=O)NN(c1ccccc1)c1ccccc1
11.1%	Cc1ccc(N2CC(C(=O)Nc3ncc([N+](=O)[O-])s3)CC2=O)cc1 (stereo not given)
16.3%	Cc1cccc(N2CCN(C3=NC(=O)/C(=C\c4cn[nH]c4-c4ccccc4)S3)CC2)c1

(cont.)
VDR inhibitor	smiles
18.7%	Cc1nc(S(=O)(=O)N2CCN(c3ccc(Cl)cc3)CC2)cn1C
-1.4%	O=C(O)c1ccccc1C(=O)Nn1cnnc1
4.2%	O=C(O)c1cccc(S(=O)(=O)Nc2cc(Cl)ccc2Cl)c1
-7.8%	O=C(CCCN1C(=O)c2ccccc2C1=O)NCCN1C(=O)S/C(=C\c2cccs2)C1=O
-7.1%	COc1ccccc1NC(=O)COC(=O)/C=C/c1ccc(OC)c(OC)c1
3.6%	COc1ccc2cc(C(=O)C3CCCN(Cc4ccccn4)C3)ccc2c1 (stereo not given)
-14.2%	CCN1CCN(CC(=O)Nc2nc3ccc(OC)cc3s2)CC1
-14.9%	CC(CNc1nc2ccccc2c2nc(-c3ccccc3)nn12)c1ccccc1 (stereo not given)
-7.8%	COc1cccc(C(=O)COc2ccccc2N2C(=O)C3C4C=CC(C4)C3C2=O)c1 (stereo not given)
-1.2%	Cc1ccc(Nc2c([N+](=O)[O-])ccc3nonc23)cc1C
-1.1%	Cc1ccc(S(=O)(=O)N2CCN(C(=O)CSc3ccc(Cl)cc3)CC2)cc1
-12.9%	O=C(CCc1nnc(-c2ccccc2)o1)NCC1CCN(C2CCCC2)CC1

Some of the entries so far, with each value named:
Molecule: O=C(O)c1ccccc1C(=O)Nn1cnnc1
  VDR inhibitor: -1.4%
Molecule: O=C(O)c1cccc(S(=O)(=O)Nc2cc(Cl)ccc2Cl)c1
  VDR inhibitor: 4.2%
Molecule: O=C(CCCN1C(=O)c2ccccc2C1=O)NCCN1C(=O)S/C(=C\c2cccs2)C1=O
  VDR inhibitor: -7.8%
Molecule: COc1ccccc1NC(=O)COC(=O)/C=C/c1ccc(OC)c(OC)c1
  VDR inhibitor: -7.1%

New compounds follow:
VDR inhibitor	smiles
7.6%	Cc1ccc(CNC(=O)CSc2ncn[nH]2)cc1
1.6%	O=C1c2[nH]nc(-c3ccccc3O)c2C(c2ccccc2F)N1Cc1ccncc1 (stereo not given)
-15.5%	COC(=O)CC1C(C(=O)OC)ON2OC(C(=O)OC)C(C(=O)OC)C12 (stereo not given)
9.7%	O=C(NCc1ccco1)c1cccc(S(=O)(=O)N2CCN(Cc3ccccc3)CC2)c1
-3.4%	O=C(CCn1cnnn1)NC1CCCN(Cc2ccccc2F)C1 (stereo not given)
9.6%	CCc1ccc2occ(CC(=O)Nc3nnc(C)s3)c2c1
-4.8%	COCCn1c(SCC(=O)Nc2cc(C)nn2-c2ccccc2)nnc1-c1ccncc1
14.3%	Cc1cccc(OCCCCc2c(C)n[nH]c2C)c1
-21.2%	Cc1ccc(-c2csc3nc(SCC(=O)Nc4ccc(Cl)c(C(=O)O)c4)[nH]c(=O)c23)cc1
9.6%	c1ccc(-c2nnc3n2N=C(c2ccc4c(c2)OCO4)CS3)nc1
-14.3%	O=C(Nc1ccc(S(=O)(=O)Nc2nccc(C3Cc4ccccc4C(=O)O3)n2)cc1)c1ccccc1 (stereo not given)
-0.5%	CCOC(=O)c1[nH]c2ccc(OC)cc2c1N=CN(C)C

The list goes on:
VDR inhibitor	smiles
-2.3%	CN(C)S(=O)(=O)c1cccc(NC(=S)N/N=C/c2cccc(O)c2)c1
-5.6%	CCN1CCCC1CNC(=O)CSc1cc(=O)n(C)c2cc(Cl)ccc12 (stereo not given)
?	CO/N=C/NC(=O)c1ccc([N+](=O)[O-])c(CS(=O)(=O)c2ccc(Cl)cc2)c1
-15.8%	COc1ccc(S(=O)(=O)Nc2cccc3c2O[C@H](CN(C)S(=O)(=O)c2ccc(Cl)cc2)[C@H](C)CN([C@H](C)CO)C3=O)cc1
-6.7%	COc1cccc(CCNC(=O)CC2C(=O)NCCN2Cc2ccc(C)o2)c1 (stereo not given)
6.3%	O=C(c1cccc2ccccc12)N1CCN(CC2CC=CCC2)CC1 (stereo not given)
-1.4%	CC(=O)Nc1ccc(S(=O)(=O)N2CCC(NC(=O)C(Cc3cccn3C)NC(C)=O)CC2)cc1 (stereo not given)
9.9%	O=C(OC1CCCCC1=O)c1cc(S(=O)(=O)N2CCOCC2)ccc1F (stereo not given)
?	O=C(CCn1c2c(c3ccccc31)CCCC2)NNC(=O)c1ccc(Cl)c([N+](=O)[O-])c1
2.9%	O=[N+]([O-])c1ccc(N2CCN(C(=S)Nc3cccc(F)c3)CC2)cc1
16.7%	CCOC(=O)C1CCN(C(=O)/C=C/c2cc(OC)c(OC)c(OC)c2)CC1
9.8%	Cc1nc(-c2ccc(F)cc2)c(CC(=O)N(C)CC(=O)Nc2ccc(Cl)c(C(F)(F)F)c2)s1

New compounds follow
VDR inhibitor	smiles
-9.0%	CCC(=O)Nc1sc(Cc2ccccc2)c(C)c1C(N)=O
?	COc1cccc(/C=C2/C(=O)NN(c3ccc(Br)cc3)C2=O)c1O
15.7%	NC(=O)c1ccsc1NC(=O)COC(=O)CNC(=O)c1cccc([N+](=O)[O-])c1
-2.1%	O=C(O)c1ccc(NS(=O)(=O)/C=C/c2ccccc2)cc1O
-20.0%	Cc1ccc(NC(=O)Cn2c(=O)c3cc(Cl)ccc3n3nncc23)cc1
5.4%	O=C(CCN1C(=O)CSC1=O)Nc1ccc(Br)cc1
0.3%	S=C(NCc1cccnc1)Nc1ccc2c(c1)OCO2
-0.7%	O=S(=O)(Nc1ncccn1)c1ccc(NC(=S)Nc2ccccc2)cc1
-6.5%	CCc1ccc(NC(=O)CC2C(=O)N(c3ccc(C)cc3)C(=O)N2C2CC2)cc1 (stereo not given)
14.5%	CC(C)(C)NC(=O)N1CCC(C(=O)O)CC1
